HPGD inh = inhibitors of human 15-hydroxyprostaglandin dehydrogenase (HPGD). 4.3% of 150,000 active. Potency, µM, without a hit: at the highest dose activity change, negative = inhibition, usual class: inhibitors. purified HPGD, NADH fluorescence kinetic, PGE2 substrate. P15428; active = well fitted inhibition curve with a large enough effect (not every such curve was filed as active); inconclusive = small, poorly fitted or top-dose-only effect, or another doubt; inactive = no such curve, though single readings can be large or run the other way;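 also: top concentration of the series not given in the record; plate controls included wells without enzyme; inactives centre near -10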
Target sequence (P15428 whole entry, looked up): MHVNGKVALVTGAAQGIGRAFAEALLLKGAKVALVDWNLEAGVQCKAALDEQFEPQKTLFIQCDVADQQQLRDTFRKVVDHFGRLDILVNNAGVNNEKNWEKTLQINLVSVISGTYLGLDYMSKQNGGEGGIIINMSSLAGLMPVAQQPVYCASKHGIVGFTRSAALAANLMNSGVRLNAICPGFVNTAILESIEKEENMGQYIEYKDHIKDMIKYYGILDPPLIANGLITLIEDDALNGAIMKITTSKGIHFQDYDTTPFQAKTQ
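20 nM HPGD preincubated 15 min at room temperature with compound in 50 mM Tris-HCl pH 8, 0.01% Tween 20. Started with 1 mM NAD+ and 30 uM prostaglandin E2; NADH fluorescence (360/450 nm) read 5 times over 30-s intervals, last minus first.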
Starred values were filed as active, the others as inactive; ? = inconclusive; & = joins results of further samples. % is scaled to controls: 0 for no effect and ±100 for the full control effect; potency is read from the fitted curve at half-maximal effect. Not all compounds are listed; count on the stated rates, not on these rows.

SMILES	HPGD inh
COCCCN1CC23C=CC(O2)C(C(=O)O)C3C1=O (stereo unspecified)	-17.4%
CC1CN(c2nc(-c3ccc(Br)cc3)nnc2-c2ccccc2)CC(C)N1 (stereo unspecified)	-2.5%
COc1ccc(C2C=C(c3ccc(Cl)cc3)Nc3nc(NC(C)=O)nn32)cc1 (stereo unspecified)	?
CCCCCCCCCCCCCCCCOCC(CO)OC (stereo unspecified)	-5.9%
COCCn1c(=O)c(-c2cc(F)cc(F)c2)nc2cnc(Oc3ccccc3)nc21	?
CC(C)n1c(NCc2cccs2)nc2ccccc21	2.5%
COc1ccc(/C=N/NC(=O)c2ccc(O)cc2)cc1CN1CCCc2ccccc21	-14.2%
O=C1c2ccccc2C(Nc2ccccc2)N1c1cccnc1 (stereo unspecified)	-5.1%
COc1ccc(Br)c(C(=O)Nn2c(C)nc3ccccc3c2=O)c1	-7.9%
O=C(Nc1nc(-c2cccs2)cs1)c1cccc(S(=O)(=O)N2CCCCCC2)c1	-20.3%
Cc1cc(C)nc(N(C#N)S(=O)(=O)c2ccc(Br)cc2)n1	-21.3%
COc1ccc(N2CCN(C(=O)c3ccc4nc(N5CCCCC5)sc4c3)CC2)cc1	-23.8%
COc1ccc(N2CCN(c3nc4ccccn4c(=O)c3C=O)CC2)cc1	-14.5%
c1ccn2c(c1)nc1c2nc2ccccn21	?
CCCc1[nH]nc2c1C(c1ccccc1OC)C(C#N)=C(N)O2 (stereo unspecified)	-8.4%
CCOC(=O)c1c(CC(C)C)csc1NC(=O)CCl	-7.5%
Cc1nc2nc[nH]n2c(=O)c1NS(C)(=O)=O	-6.2%
COc1ccc2c(c1)O[C@@H](c1cccc(C(F)(F)F)c1)[C@H](OC(=O)Nc1ccc(OC(F)F)cc1)C2=O	-18.9%&-17.0%
Cn1cc(S(=O)(=O)N2CCN(c3cccc(C(F)(F)F)c3)CC2)c(=O)n(C)c1=O	-15.2%
CSCCC(NC(=O)c1ccccc1)C(=O)NCc1ccco1 (stereo unspecified)	-11.9%

Two successive entries from above, quoted:
SMILES	HPGD inh
COCCCN1CC23C=CC(O2)C(C(=O)O)C3C1=O (stereo unspecified)	-17.4%
CC1CN(c2nc(-c3ccc(Br)cc3)nnc2-c2ccccc2)CC(C)N1 (stereo unspecified)	-2.5%

Continuation:
SMILES	HPGD inh
COc1ccc(CCC(=O)Nc2nc3ccccc3[nH]2)cc1OC	-0.5%
C#C[C@]1(O)CC[C@@H]2[C@H]3CCC4=CCCC[C@@H]4[C@@H]3CC[C@@]21C	-9.2%
Cc1ccc(CSC(Nc2ccc(F)cc2)=C(C#N)C#N)cc1	-5.7%
FC(F)Oc1ccc(NC(=S)NCC2COc3ccccc3O2)cc1 (stereo unspecified)	-17.7%
CCc1c(C(=O)O)[nH]c2ccc(Br)cc12	6.1%
Nc1ccc(S(=O)(=O)Nc2ccccn2)cc1	-12.4%&-16.6%&3.1%
O=C(COc1cc(Cl)c(Cl)cc1Cl)NC(=O)Nc1ccc2c(c1)OCCO2	-1.4%
Cc1cccn2c(N)c(-c3ccccc3)nc12	?
O=C(C(=O)N1CC=C(c2ccccc2)CC1)c1c[nH]c2ccccc12	-8.9%
CCCCNc1cc(=O)n(C)c(=O)[nH]1	-19.8%
CCOC(=O)C(NC(=O)c1ccc(OC)cc1)(Nc1cc(C)on1)C(F)(F)F (stereo unspecified)	-3.1%
CCCCSc1nnc(NC(=O)CCc2ccccc2)s1	-8.5%
CCC(=O)NNc1cccc(Cl)n1	-2.6%
O=S(=O)(Nc1ccc(-c2nc3cccnc3s2)cc1)c1cccs1	?
CN1CCN(c2ncc3nc(-c4ccc(Cl)cc4)c(=O)n(CCC#N)c3n2)CC1	?
COc1ccc(Br)cc1S(=O)(=O)N1CC(C)OC(C)C1 (stereo unspecified)	-10.8%
CCCn1c(=O)[nH]c(=O)c2c1nc(-c1ccc(OC(F)(F)C(F)C(F)(F)F)cc1)n2CCOC (stereo unspecified)	?
COc1ccc(/C=C/c2nc3cc(-c4ccccc4)ccc3o2)cc1O	?
Cc1ccc2cc(CN(CC3CCCO3)S(=O)(=O)c3c(C)ccc4nsnc34)c(=O)[nH]c2c1 (stereo unspecified)	-7.2%
Cc1ccc2nc(-c3ccc(NC(=O)CCN4C(=O)c5ccccc5C4=O)cc3)sc2c1	?
CCOC(=O)C1=C(c2ccccc2)NC(=S)NC1c1ccc(Cl)c([N+](=O)[O-])c1 (stereo unspecified)	-23.9%
CC(=O)c1c(C)nc2ccccn12	-5.2%
COc1ccccc1NC(=O)Nc1ccnn1C1CCCCC1	2.7%
O=C(CNC(=O)c1ccc(Br)o1)NCc1ccc2c(c1)OCO2	-0.1%
CC1=[N+]([O-])C(C)(C)C(c2ccc(Br)cc2)=[N+]1[O-]	-6.1%
NC1=NC(=O)/C(=C/c2cn(CCC(=O)O)nc2-c2ccc(F)cc2)S1	25.1µM*
CCS(=O)(=O)N1Cc2ccccc2CC1C(=O)Nc1nc2ccc(F)cc2s1 (stereo unspecified)	-14.0%
CC(=O)Nc1cccc(-c2csc(Nc3ccc(C)cn3)n2)c1	-25.2%
CCCCc1nc(N)c(C#N)c(-c2ccco2)c1CCC	?
CC(C)Cc1csc(NC(=O)c2ccccc2Cl)c1C(=O)O	14.1µM*
Cc1cc(C(=O)CSc2ncccn2)c(C)n1-c1cccc(F)c1	-18.7%
Cc1ccc(-c2nnn(CC(=O)NCCc3ccc4c(c3)OCO4)n2)o1	-3.2%
O=C(COc1ccc(S(=O)(=O)N2CCCCC2)cc1)N1CCCCCC1	-2.5%
COc1cccc(Nc2nnc(SCN3C(=O)c4ccccc4C3=O)s2)c1	-9.2%
O=C(O)[C@@H]1CCCN1C(=O)c1ccco1	-0.2%
COc1ccc(N(CC(=O)Nc2cccc([N+](=O)[O-])c2C)S(C)(=O)=O)cc1OC	1.6%
CCN(CC)S(=O)(=O)c1ccc(N2C(=O)Nc3ccccc3N2O)cc1	-1.6%
Cc1ccc(Nc2nc(=O)[nH]nc2C)cc1	-5.7%
CCCCCC/C=C\CCCCCCCc1cccc(O)c1C(=O)O	-21.8%
Cc1cc(=O)n(C)c(=O)n1CCCNc1ccccc1	-16.9%
COC1=C(Nc2ccc(C)cc2)C(=O)c2ccccc2C1=O	11.2µM*
COc1ccccc1NC(=O)C1=C(C)NC(SCC(=O)c2ccccc2)=C(C#N)C1c1ccco1 (stereo unspecified)	?
CCOC(=O)C(C(=O)Nc1cccc(C)c1)C1CCCCC1 (stereo unspecified)	-8.0%
O=C(COC(=O)Cc1ccc(Cl)cc1Cl)Nc1ccccc1OC(F)F	-9.9%
COc1ccc(S(=O)(=O)N(C)C)cc1NS(=O)(=O)c1ccc(F)c(F)c1F	-7.4%
CCN(CC)S(=O)(=O)c1ccc(C(=O)NCCc2cc3c(OC)ccc(OC)c3[nH]c2=O)cc1	-4.8%
CC(C)(C)N(NC(=O)Nc1ccc(Cl)c(Cl)c1)C(=O)c1ccccc1	-16.9%
O=C(C[n+]1cccc(CNC(=O)c2ccc(OC(F)F)cc2)c1)Nc1cccc(C(F)(F)F)c1	-7.2%
c1ccc2c(c1)NC1(CCCCC1)n1c-2nc2ccccc21	?
O=C(NCc1cccnc1)C1CC2c3ccccc3C1c1ccccc12 (stereo unspecified)	4.5%
Fc1ccc(-c2ccnc3nc(-n4cccc4)nn23)cc1	?
CC(Oc1ccccc1Cl)c1nnc(N)s1 (stereo unspecified)	-7.7%
CCOc1ccc(N(CC(=O)N2CC=C(c3ccccc3)CC2)S(=O)(=O)c2c(C)noc2C)cc1	-13.6%
Cc1cccc(C(=O)N2CCC(Cc3ccccc3)CC2)c1[N+](=O)[O-]	-5.7%
Cc1ccc(C(=O)NNC(=O)c2cccc(S(=O)(=O)N3CCN(c4ccccc4)CC3)c2)cc1	-13.1%
COc1cc(C2NC(=S)NC(c3ccccc3)=C2C(C)=O)cc(Cl)c1OCC(=O)O (stereo unspecified)	-19.5%
C=CCOc1cccc(/C=N/NC(=O)CN(c2cc(Cl)ccc2OC)S(=O)(=O)c2ccc(C)c([N+](=O)[O-])c2)c1	-9.0%
COc1cc(/C=N\n2cnnc2)ccc1OCC(=O)Nc1ccc(C)cc1	?
COC(=O)N/N=C(\C)c1ccc(C)c([N+](=O)[O-])c1	-16.6%
CCCCCCOc1ccc(N2C(=O)CC(N3CCN(C(=O)c4ccco4)CC3)C2=O)cc1 (stereo unspecified)	-12.1%

Look-ups from the list.
CCN(CC)S(=O)(=O)c1ccc(C(=O)NCCc2cc3c(OC)ccc(OC)c3[nH]c2=O)cc1 in HPGD inh has -4.8%
CCOc1ccc(N(CC(=O)N2CC=C(c3ccccc3)CC2)S(=O)(=O)c2c(C)noc2C)cc1 in HPGD inh has -13.6%
O=C(C[n+]1cccc(CNC(=O)c2ccc(OC(F)F)cc2)c1)Nc1cccc(C(F)(F)F)c1 in HPGD inh has -7.2%
COc1ccc(S(=O)(=O)N(C)C)cc1NS(=O)(=O)c1ccc(F)c(F)c1F in HPGD inh has -7.4%

Other results
SMILES	HPGD inh
Cc1ccc(S(=O)(=O)NCCN(CCNS(=O)(=O)c2ccc(C)cc2)S(C)(=O)=O)cc1	-4.7%
CC(C)(C)c1ccc(/C=C2\SC(=O)N(CCNC(=O)c3cccc(S(=O)(=O)N4CCOCC4)c3)C2=O)cc1	-24.5%
O=C(Nc1ccc(Cn2cccn2)cc1)c1ccc(COc2ccccc2Br)cc1	?
O=C(Cn1cnc2ccccc2c1=O)NCCC(=O)N1CCN(Cc2ccccc2)CC1	-3.8%
CCOc1ccc(Oc2cc(NC(=O)c3ccco3)cc([N+](=O)[O-])c2)cc1	-19.7%
O=C(OCCN1CCCCC1)c1ccccc1Cl	?
Nn1c(SCC(=O)NC2CCCC2)nnc1-c1ccccc1F	-2.7%
COc1ccc(-c2nnc(SC(C)C(=O)NCc3ccc4c(c3)OCO4)n2Cc2ccco2)cc1 (stereo unspecified)	-7.1%
CCCCOC(=O)C1=C(C)Nc2nnnn2C1c1ccc(OC)c(OC)c1OC (stereo unspecified)	-1.3%
CCN(C(=S)Nc1ccccc1F)C1CCCCC1	0.9%
C(=N\Nc1nc2ccccc2[nH]1)/c1c[nH]c2ccccc12	-15.3%
CCCCCCCCNC(=O)CC(NS(=O)(=O)c1ccc(NC(C)=O)cc1)C(C)C (stereo unspecified)	-12.3%
CC(C)C(NC(=O)CC12CC3CC(CC(C3)C1)C2)C(=O)O (stereo unspecified)	-2.1%
O=C(NCCC1=CCCCC1)C1CCCN(S(=O)(=O)c2ccccc2)C1 (stereo unspecified)	-15.2%
COc1ccc2c(c1)N(C(=O)CN1C(=O)C3CCCCC3C1=O)C(C)(C)C=C2C (stereo unspecified)	-8.7%
COC(=O)[C@H](CC(C)C)NC(=O)Nc1cccc(Br)c1	-18.9%
CC1CCN(S(=O)(=O)c2ccc(NC(=O)c3cccs3)cc2)CC1	-5.0%
O=C(CSc1nnc2scc(-c3ccccc3)n12)NCc1ccco1	-20.9%
Cc1ccc(Oc2nc(-c3ccccc3)ncc2S(C)(=O)=O)cc1	-7.2%
CC1CCN(C(=O)/C(=C/c2ccccc2Cl)c2ccccc2)CC1	11.2µM*

Among those listed so far, these have a tert-butyl group.
SMILES	HPGD inh
CC(C)(C)N(NC(=O)Nc1ccc(Cl)c(Cl)c1)C(=O)c1ccccc1	-16.9%
CC(C)(C)c1ccc(/C=C2\SC(=O)N(CCNC(=O)c3cccc(S(=O)(=O)N4CCOCC4)c3)C2=O)cc1	-24.5%

Next section.
SMILES	HPGD inh
N#Cc1ccccc1Cn1cc(C#N)c2ccccc21	-14.1%
Nc1nnc(CC(c2ccccc2)c2ccccc2)s1	22.4µM*
Cc1ccc(Cn2nnc(C(=O)Nc3cccc(C)c3C)c2N)cc1	-4.6%
Cc1cccc(NC(=S)/N=C(\N)Nc2nc(C)c3ccccc3n2)c1	-27.8%
COc1ccc(C)cc1S(=O)(=O)N(C)CC(=O)Nc1ccc2c(c1)OCO2	-4.4%
Cc1ccc(O)c(CNc2nc3ccccc3n2C)c1	?
Cc1ccc(C(=O)CSc2nc3ccccc3c(=O)n2N)o1	25.1µM*
CC(C)c1cc(-c2n[nH]c(=S)n2Cc2ccccc2)cs1	?
CC1(C)CC(=O)C2=C(C1)N(c1ccc(F)cc1)C(=O)CC2c1ccccc1 (stereo unspecified)	-14.1%
COc1ccccc1Nc1nc(N)nc(CN2CCN(c3ccccc3F)CC2)n1	-8.1%
O=S(=O)(c1cccc(NC(=S)NCc2ccco2)c1)N1CCOCC1	-15.2%
c1ccc(Nc2n[nH]nc2-c2ccccc2)cc1	14.1µM*
CCCCN(CC)CCNc1c(N2CCN(C(=O)OCC)CC2)c(=O)c1=O	-13.2%
CCOC(=O)C1=C(c2ccccc2)NC(SC)=C(C#N)C1c1cccnc1 (stereo unspecified)	-9.5%
CCn1c2ccccc2c2cc(NC(C)=O)ccc21	-8.1%
COC(=O)[C@@]1(Cc2ccc(F)cc2)[C@H]2c3cc(C(=O)N(C)C)n(CCCNc4ccc(C(F)(F)F)cc4Cl)c3C[C@H]2CN1C(=O)c1ccccc1	-7.5%
CCC1S/C(=C(\C#N)C(=O)NCc2ccco2)N(c2ccc(Br)cc2)C1=O (stereo unspecified)	1.4%
O=C(CCc1ccc(S(=O)(=O)NCc2ccccc2)cc1)NCc1ccc2c(c1)OCO2	-3.0%
CC(C)c1ccc(CN2CCC(C(=O)NCc3cccnc3)CC2)cc1	-7.3%
COc1cccc(NC(=O)COC(=O)CCCc2c[nH]c3ccccc23)c1	-20.9%
COc1cc(CNc2ccc3[nH]c(=O)[nH]c3c2)ccc1OCC(=O)NC(C)(C)C	?
S=C(NC1CCCCC1)NC1CCCCC1	-17.6%
O=C(c1ccc(Br)o1)N1CCCc2ccccc21	2.7%
Cc1ccc(S(=O)(=O)Cc2ccc(C(=O)N3CCCCCC3)o2)cc1	-6.5%
CCCn1nnc(NC(=O)c2cc3ccccc3o2)n1	-9.2%
CCOc1ccc(N2C(=O)c3ccccc3C2O)cc1 (stereo unspecified)	-21.7%

High-throughput results (PubChem BioAssay)
